# RecA intein inh: Mtb RecA intein splicing inhibitors, primary screen, biochemical, fluorescence, HTS; Protein RecA (Mycobacterium tuberculosis (strain ATCC 25618 / H37Rv)), P9WHJ3; inhibition, %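 (about 9 µM by stock and volumes)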; AID 2221, 2009; 290,000 tested, 0.75% active; cell-free RecA intein splicing; in the data active = inhibition above about 30%; inconclusive = no clear call, values can overlap the other calls;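 also: 0% = vehicle wells and 100% = reference inhibitor control wells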
# Target sequence (P9WHJ3 whole entry, looked up): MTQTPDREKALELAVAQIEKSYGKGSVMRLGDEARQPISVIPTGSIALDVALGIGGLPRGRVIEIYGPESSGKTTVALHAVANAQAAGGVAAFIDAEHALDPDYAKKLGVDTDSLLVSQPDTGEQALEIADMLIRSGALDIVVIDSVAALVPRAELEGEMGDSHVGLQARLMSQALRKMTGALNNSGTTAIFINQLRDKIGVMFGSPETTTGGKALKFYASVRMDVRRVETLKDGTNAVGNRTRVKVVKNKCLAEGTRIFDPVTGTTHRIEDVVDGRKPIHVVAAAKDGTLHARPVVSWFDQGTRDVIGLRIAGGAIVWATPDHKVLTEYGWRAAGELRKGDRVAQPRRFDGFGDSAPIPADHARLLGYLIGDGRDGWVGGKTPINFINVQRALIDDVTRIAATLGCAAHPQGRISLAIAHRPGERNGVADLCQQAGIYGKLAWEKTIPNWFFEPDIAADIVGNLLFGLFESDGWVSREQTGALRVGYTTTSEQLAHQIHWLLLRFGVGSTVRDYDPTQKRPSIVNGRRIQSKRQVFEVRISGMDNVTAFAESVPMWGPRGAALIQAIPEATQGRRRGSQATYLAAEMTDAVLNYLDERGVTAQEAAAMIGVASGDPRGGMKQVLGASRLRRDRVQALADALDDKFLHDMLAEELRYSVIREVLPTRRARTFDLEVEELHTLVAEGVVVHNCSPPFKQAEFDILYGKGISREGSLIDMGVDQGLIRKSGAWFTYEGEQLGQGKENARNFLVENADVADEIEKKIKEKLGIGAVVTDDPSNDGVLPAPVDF
# YopH PTP inh: YopH tyrosine phosphatase inhibitors, primary screen, biochemical, fluorescence Ex485/Em525; YopH tyrosine phosphatase [Yersinia enterocolitica]; inhibition, %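 (about 10 µM by stock and volumes)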; 140,000 tested, 0.16% active;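 active = inhibition of 50% or more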;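 also: controls were vehicle for no effect and minimum signal wells for full effect; inactives centre near -20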
# Arbovirus anti: antivirals against arbovirus infection, primary screen, cell-based, full library, 10K replicate subset | arbovirus infection cell-based antiviral screen | inhibition, % at 10 µM | 200,000 tested, 0.37% active | AID 1251, 2008;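 active = inhibition from about 30%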;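 also: bluetongue infection of BSR cells; cell survival read as ATP light after 72 h; 0% = infected wells without compound and 100% = uninfected wells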
# Mtb H37Rv: M. tuberculosis H37Rv growth inhibitors, H37Rv strain (AID 1626) | M. tuberculosis H37Rv growth inhibition; higher % means a stronger effect | inhibition, % at 10 µM; hits with a dose series show IC50 in µM | 220,000 tested, 0.95% active;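 active = confirmed in a dose series; inconclusive = inhibition above 80% but not taken into the dose series; inactive = below 80% or under 30% at every dose of the series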;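 also: bacteria incubated seven days before Alamar blue readout; 0% = bacteria only wells and 100% = bacteria with antibiotic wells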
# Mtb betalactam: beta-lactam sensitization of Mtb H37Rv, H37Rv | M. tuberculosis H37Rv growth with meropenem, percent inhibition; hits of this screen are not shown here | inhibition, % at 25 µM | 330,000 tested, 0.27% active;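 active = about 74% or more and at least 40 points above the plate without the antibiotic, then above 30% in a dose series; inconclusive = first-round hits that could not be retested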;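 also: growth measured after seven days incubation then overnight dye step; 0% = bacteria only wells and 100% = bacteria with antibiotic; twin plates without the antibiotic show which effects depend on it; some results filed as inactive read as strong as hits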
# Arbovirus anti repeat: recorded beside Arbovirus anti, whose call it bears; inhibition, %; measured here: 10K subset replicate screen; many hits read low in the repeat;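 first of two repeat runs on a subset; 0% = infected and 100% = uninfected wells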
# The depositor's hits bear a star; ? = inconclusive; / = not tested or not shown.
# The opening six compounds, ahead of the listing:
SMILES,RecA intein inh,YopH PTP inh,Arbovirus anti,Mtb H37Rv,Mtb betalactam,others
O=C(CN1CCN(Cc2ccc(F)cc2Cl)C1=O)NCCc1ccc(Cl)cc1,2.0,-2,3,-7%,7,
CC1CCCN(C(=O)C23CCC(C)(C(=O)C2)C3(C)C)C1 (stereo not given),4.4,-2,5,1%,2,Arbovirus anti repeat=3
Brc1ccsc1/C=N/Nc1ccccc1,7.6,/,/,/,57,
COc1ccc(C(=O)O)cc1NCc1cccnc1,-2.4,/,/,/,6,
Cc1cccc(-n2c(Cc3cc(=O)[nH]c(=O)[nH]3)nnc2SCC(=O)Nc2cccc(C(F)(F)F)c2)c1,0.4,/,1,6%,2,
O=C(CSc1nncs1)Nc1ccc2c(c1)OCO2,4.2,/,1,3%,3,

# The list itself, from the start:
SMILES,RecA intein inh,YopH PTP inh,Arbovirus anti,Mtb H37Rv,Mtb betalactam,others
O=C(CN1CCN(Cc2ccc(F)cc2Cl)C1=O)NCCc1ccc(Cl)cc1,2.0,-2,3,-7%,7,
CC1CCCN(C(=O)C23CCC(C)(C(=O)C2)C3(C)C)C1 (stereo not given),4.4,-2,5,1%,2,Arbovirus anti repeat=3
Brc1ccsc1/C=N/Nc1ccccc1,7.6,/,/,/,57,
COc1ccc(C(=O)O)cc1NCc1cccnc1,-2.4,/,/,/,6,
Cc1cccc(-n2c(Cc3cc(=O)[nH]c(=O)[nH]3)nnc2SCC(=O)Nc2cccc(C(F)(F)F)c2)c1,0.4,/,1,6%,2,
O=C(CSc1nncs1)Nc1ccc2c(c1)OCO2,4.2,/,1,3%,3,
S=C(Nc1cccc(Cl)c1)NC1CC2CCCC(C1)N2C1CCCC1 (stereo not given),6.6,-26,3,6%,-3,
CCOC(=O)c1c(NC(=O)CSc2nnc(C)c(=O)[nH]2)sc2c1CCCC2,-1.3,-11,-3,-4%,-4,
C=CCn1c(O)c(C2=c3ccccc3=NC2=O)s/c1=N/c1nccs1,3.1,7,-8,/,-3,Arbovirus anti repeat=-19
CCc1ccc(OCCNC(=O)c2ccccc2SCc2ccccc2)cc1,8.8,7,-9,/,14,
CCCn1c(=S)[nH]c2cc(C(=O)N(CCO)Cc3ccccc3)ccc2c1=O,-3.9,/,/,/,1,
O=C(NC1CCCCC1)N1CCSC1=Nc1ccccc1,/,6,2,-7%,58,
CC[N+]1(C)CCC(=C2c3ccccc3CC(=O)c3sccc32)CC1 (stereo not given),-5.3,-8,4,-8%,-18,
Cc1nnc(SCC(=O)Nc2nsc(-c3ccc(Cl)cc3)n2)s1,-1.5,-4,4,8%,63,
CC(CCc1ccco1)NC(=O)CSc1cc(=O)n(C)c2ccccc12 (stereo not given),-2.9,-42,-7,-3%,-4,
CC(c1ccc(Cl)cc1)n1c(-c2ccc3ccccc3n2)n[nH]c1=S (stereo not given),17,-37,-10,6%,10,
CCc1nc2oc3ccccc3c(=O)c2c(=O)n1-c1ccccc1,4.6,-12,6,-3%,7,
CCC/C(C)=N/NC(=O)c1ccccc1O,-0.4,-28,-10,-7%,23,
COc1ccc(NC(=O)Cn2nnc(-c3ccccc3NC(=O)C3CC3)n2)cc1,-0.9,-15,-2,5%,-2,
O=C(c1cnn(-c2ccccc2)c1)c1ccccc1O,5.0,-12,3,5%,-5,
COc1ccc(CCNC(=O)Cc2c(Cl)cccc2Cl)cc1,-0.7,/,1,3%,3,
O=C(CSc1nc2ccccc2s1)N1c2ccccc2Sc2ccc(C(F)(F)F)cc21,3.9,-40,-6,-3%,9,
COc1ccccc1CNC(=O)C1CCC(CNS(=O)(=O)c2ccccc2)CC1 (stereo not given),-2.4,/,/,/,2,
CCOC(=O)CSC1=C(C#N)C(c2ccccc2F)C(C(C)=O)=C(C)N1 (stereo not given),2.2,-28,-9,2%,41,
COc1ccc(N2C(=O)CC(c3ccc(OC(C)C)cc3)C2=O)cc1 (stereo not given),2.3,-48,1,3%,1,Arbovirus anti repeat=6
O=C(/C=C/Nc1ccccc1Oc1ccccc1)c1ccco1,-1.5,/,0,12%,4,
COc1ccccc1C(CC(=O)O)c1ccc2c(c1)OCO2 (stereo not given),-0.8,/,/,/,5,
CCN(CC)CCSc1nc(O)c(-c2ccccc2)c(=O)[nH]1,0.8,-8,0,-4%,16,
Cc1ccc(NC(=O)CSc2nc3sc(C)cc3c(=O)n2C)cc1,0.5,/,/,/,4,
Cc1ccc2nc(SCC(=O)Nc3c(C)n(C)n(-c4ccccc4)c3=O)[nH]c2c1,-6.8,-31,5,-11%,-7,
Cc1cc(C(=O)NCc2ccco2)cs1,1.8,-35,2,-4%,-3,Arbovirus anti repeat=-4
Cc1ccc(S(=O)(=O)NCc2ccccc2)cc1C(=O)NCC1CCCO1 (stereo not given),0.2,/,/,/,-1,
CC1=NN(c2cccc(F)c2)C(=O)/C1=C/c1ccc(N(C)C)cc1,0.7,/,/,/,-1,
COc1cc2c(cc1OC)C(COc1ccccc1OC)N(C(=O)c1ccco1)CC2 (stereo not given),1.8,/,18,5%,0,
COCCCn1cnc2c(c1=O)c1nc3ccccc3nc1n2-c1ccc(C)cc1,0.2,-32,-5,0%,55,
CSCC[C@H](NC(=O)OC(C)(C)C)C(=O)NCC1CCC(C(=O)O)CC1 (stereo not given in full),-2.7,/,/,-12%,-3,
Cc1cc(C)cc(OCC(=O)OCCN2C(=O)c3ccccc3C2=O)c1,-1.2,-26,4,17%,94,
COc1ccc(CCC(=O)NNC(=S)Nc2cccc(C(C)=O)c2)cc1,4.0,/,2,1%,-5,
COc1ccc(C(=O)Nc2ccnc(-c3cccnc3)n2)cc1,-2.7,/,0,8%,-2,
CCN(CC)CCn1c2ccccc2c2cnc(N)c(C#N)c21,0.0,4,-17,10%,12,

# Looked up by structure from above, 2 records:
SMILES,RecA intein inh,YopH PTP inh,Arbovirus anti,Mtb H37Rv,Mtb betalactam,others
CC[N+]1(C)CCC(=C2c3ccccc3CC(=O)c3sccc32)CC1 (stereo not given),-5.3,-8,4,-8%,-18,
COc1ccccc1CNC(=O)C1CCC(CNS(=O)(=O)c2ccccc2)CC1 (stereo not given),-2.4,/,/,/,2,

# (cont.)
SMILES,RecA intein inh,YopH PTP inh,Arbovirus anti,Mtb H37Rv,Mtb betalactam,others
COC(=O)CSc1nc(N)c(C#N)c(-c2ccc(O)cc2)c1C#N,0.0,/,/,-2%,-3,
Cc1cccc(C)c1NC1=NC2(CCCCC2)N=C(N)N1,-1.7,-54,-4,-6%,?,
COc1ccc(N2CCN(S(=O)(=O)CCNC(=O)C3CC3)CC2)cc1,-2.4,/,/,/,-16,
Cc1ccc(S(=O)(=O)N2CCOCC2)cc1NC(=O)COC(=O)c1cccnc1Cl,-0.3,/,1,5%,1,
CCCN(CCC)S(=O)(=O)c1ccc(C(=O)N2CCN(C)CC2)cc1,4.8,/,/,/,-2,
COc1ccc(C(=O)NCC(=O)OCC(=O)c2ccc3c(c2)NC(=O)CO3)cc1,-1.5,/,3,1%,-6,
CCOC(=O)c1[nH]cnc1C(=O)Nc1cccc(Cl)c1,-0.3,/,3,5%,3,
C/C(=N\OCC(=O)N/N=C/c1ccccc1)c1cccs1,-0.7,-13,-10,-4%,6,
COC(=O)Cc1cc(=O)n(-c2ccccc2)[nH]1,50*,-38,3,-4%,0,
CCOc1ccc(C(=O)n2cc(C(=O)OC)c3ccccc32)cc1,-1.2,/,/,/,4,
CCOc1ccc(C)cc1S(=O)(=O)n1ccnc1,-0.7,-33,2,5%,0,
O=C(NCCSc1c(-c2ccccc2)[nH]c2ccccc12)c1cc2ccccc2oc1=O,9.5,2,19,?,2,
O=C(Nc1c(Cl)cc(Cl)cc1-c1nc2ccccc2s1)c1ccc(Br)o1,-3.8,-28,-4,2%,30,
CNC(=O)c1ccc(NC(=O)C2CCN(c3ncnc4sc(C)c(C)c34)CC2)cc1,-1.2,/,/,/,-9,
Cc1cc(C)c2nc(-c3ccccn3)cc(C(=O)Nc3ccc(S(=O)(=O)Nc4cc(C)on4)cc3)c2c1,0.4,2,-10,8%,51,
O=C(NCCC1=CCCCC1)C1CCN(S(=O)(=O)N2CCOCC2)CC1,-3.8,-36,10,2%,-16,
CC1CCC(NC(=O)N(CCCl)N=O)CC1 (stereo not given),-2.6,/,/,-3%,-5,
COc1ccc(-c2cc(-c3ccc(OC)c(OC)c3)n[nH]2)c(O)c1,1.4,-17,32*,-1%,96,
COc1cccc(C2SCC(=O)N2c2ccc(C)cc2)c1OC (stereo not given),1.3,-32,-8,-6%,0,
Cc1ccc(N2CCN(C(=O)c3ccccc3NC(=O)C3CC=CCC3C(=O)O)CC2)cc1 (stereo not given),0.3,-18,14,1%,-11,
Cc1cccc2sc(NC(=O)c3cccc(S(=O)(=O)N4CCc5ccccc54)c3)nc12,5.3,-34,1,6%,-9,
CN1C(=O)/C(=C2\SC(=S)N(NC(=O)c3cccnc3)C2=O)c2ccccc21,3.1,/,/,/,12,
C/C(CC(=O)Nc1ccc2c(c1)OCO2)=N\NC(=O)OC(C)(C)C,-5.3,/,-22,-7%,0,
CCOC(=O)Cc1csc(NC(=O)c2cc(=O)c3ccccc3o2)n1,1.2,/,-1,-2%,0,
COc1ccc(/C=C2\CCCC3C2=NC(=S)NC3c2ccc(OC)cc2)cc1 (stereo not given),8.6,-27,-13,10%,-6,
COc1ccc(C(=O)N/N=C/c2ccc(OC(=O)c3ccccc3)cc2)cc1,2.8,-38,-4,57%,58,
Cc1c(C=O)c2ccccc2n1CC(=O)NCc1ccccc1,-7.0,/,-2,8%,2,
Cc1ccc(CNS(=O)(=O)c2ccc(C(C)(C)C)cc2)n1C,2.3,-40,10,1%,-2,
O=C(N/N=C/c1ccncc1)c1cccc([N+](=O)[O-])c1,-7.0,-25,-10,-12%,54,
C=CCn1c(SCc2nc3ccccc3[nH]2)nnc1-c1cccc(OC)c1,2.2,4,-3,3%,-6,
CS(=O)(=O)c1ccc(Cl)c(NC(=O)COC(=O)c2ncc(Cl)c(Cl)c2Cl)c1,-1.8,/,/,/,-6,
CC(=O)OC(C)(C)C1Cc2cc3ccc(=O)oc3cc2O1 (stereo not given),1.1,/,/,/,-1,
CC(C)(C)OC(=O)NNC(=S)NCc1ccc(Cl)cc1,1.5,-41,2,-13%,99,
Cn1c(=O)[nH]c(=O)c2c1nc(Br)n2Cc1ccccc1Cl,1.1,-48,-1,-1%,-5,
Cc1[nH]c(=O)[nH]c(=O)c1S(=O)(=O)N1CCCC(C(=O)NCc2ccc3c(c2)OCO3)C1 (stereo not given),-3.0,/,7,1%,2,
CCN(Cc1ccncc1)C(=O)C1CCC(=O)N(Cc2ccc(Cl)cc2)C1 (stereo not given),-1.4,/,/,/,-17,
C=CCN(C(=O)CCC(=O)O)C1CC(=O)N(c2ccc(OCCC)cc2)C1=O (stereo not given),-0.1,-12,-5,8%,2,
Cc1ccc(-n2c(C)cc(/C=N/NC(=O)c3ccncc3)c2C)c(C)c1,0.9,-27,3,?,98,
Cn1c(=O)n(Cc2ccccc2)c(=O)c2c1nc1n2CCCN1CCc1ccccc1,/,-5,1,10%,47,
COc1ccc(N2CCN(c3c(S(=O)(=O)c4ccccc4)cnc4ccc(OC)cc34)CC2)cc1,3.1,-22,5,6%,9,
CCOC(=O)c1c(NC(=O)C2C3CCC(O3)C2C(=O)O)sc(C)c1-c1ccc(C)cc1 (stereo not given),2.7,-37,2,-14%,-12,
O=C(CSc1ncnc2sccc12)Nc1ccccc1,-0.2,/,-3,-4%,-2,
CC(NC(=O)C1CCC(C(=O)NC(C)c2ccccc2)CC1)c1ccccc1 (stereo not given),0.6,/,/,/,0,
CN1CCN(NC(=O)c2cn(-c3ccccc3)nc2-c2ccc(OC(F)F)cc2)CC1,-0.1,/,-25,6%,3,
CC1(C)CC=C(NNC(=O)c2cccnc2)C(=O)C1,-11,/,9,-1%,-7,
COc1ccc(-c2cc([C@H]3[C@H]4C=CC[C@@H](C)[C@@H]4C(=O)N3Cc3ccccc3)ccc2F)cc1OC,24,/,/,-1%,2,
O=C(COc1ccccc1)N(CCc1ccccc1)c1nc(-c2ccc(F)cc2)cs1,0.2,-40,17,/,-6,
COc1cc(S(=O)(=O)N2CCOCC2)ccc1NC(=O)COC(=O)COc1ccccc1,-4.5,/,5,-12%,3,
CS(=O)(=O)N(CC(=O)Nc1ccc(F)cc1F)C1CCCCC1,0.2,/,/,/,-14,
Cc1nc(SCC(=O)Nc2cc(C(N)=O)cc(C(N)=O)c2)c2c(C)c(C)sc2n1,1.1,/,/,1%,-2,

# This is a subset, so the mix of outcomes need not match the whole.
